Screening data deposited in PubChem BioAssay by Fisher Drug Discovery Resource Center.
NPYLR7 ag – activates Aedes aegypti NPYLR7 receptor; HEK293T NPYLR7/Galpha15, GCaMP6s calcium fluorescence; activation, % at 10 µM; 270,000 compounds, 0.15% hits; in the data active = activation above about 40%;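 note: 0% = vehicle and 100% = reference agonist at the receptor; some compounds past the cut are filed as inactive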
NPYLR7 ag max-min – recorded beside NPYLR7 ag, whose call it bears; activation, %; measured here: Max-Min RFU normalised activation; some inactives read as strong as hits;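 span of the calcium signal over five minutes; 0% = vehicle and 100% = native peptide agonist; compound fluorescence can raise it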
An asterisk follows results filed as active; & = joins results of further samples. This is a subset. The share of hits here may be higher or lower than overall.

Below each compound: NPYLR7 ag	NPYLR7 ag max-min
COc1cc(C(=O)Nc2c(C)nc3ccccn3c2=O)cc(OC)c1OC
    4	3
COc1ccc(-c2cnc(CN3C4CCC3CC(C)(O)C4)o2)cc1 (centres undefined)
    11	10
CC(C)(C)C(=O)N1CCCC(OCc2ccc(F)cc2)C1 (centres undefined)
    -5	-3
COc1ccccc1N1C(=O)/C(=C/c2ccc(Cl)cc2)C=C1c1ccccc1
    -1	1
CN(Cc1ccccc1)Cc1cc(C[C@H]2CNCC[C@H]2CC(=O)NCc2ccc(F)cc2)no1
    -6	-15
CCc1cc(N2CCOCC2)nc(SCc2cccc(C(=O)NCc3ccccn3)c2)n1
    12	1
C=CCc1cc(-c2nc[nH]c2-c2ccccc2)cc(OC)c1O
    -5	-4
CC1COC(c2ccccc2Cl)CN1C(=O)NCc1ccncc1 (centres undefined)
    0&6	0&1
N#CC(NC(=O)c1ccc(-c2cscn2)cc1)c1ccccc1F (centres undefined)
    -8	636
CCN1CCN(Cc2cc(C(=O)NCc3cc(C)nn3C)no2)CC1
    0	-6
O=C(c1nc(NCCc2ccccc2)ncc1Cl)N1CCc2ccccc21
    12	7
Cc1nc(C(=O)Nc2cccc(NC(=O)CCc3ccccc3)c2)c(C)o1
    -4	-5
COc1ccc(OC)c(CNC(=O)[C@H]2CCCC[C@H]2C(=O)NC(C)(C)C)c1
    -2	-7
CCC1=NS(=O)(=O)c2cc(N)ccc2N1CCOC
    10	3
Cc1cccc(C2=NOCC(=O)N2C)c1
    6	3
CC(C)Nc1nc(-c2ccccc2CO)c2sccc2n1
    4	2
Cc1ccc(-c2csc3nc(CN(Cc4ccccc4)CC(C)(C)O)[nH]c(=O)c23)c(C)c1
    7	10
O=C(COC(=O)c1c(Cl)cccc1Cl)Nc1ccccc1OC(F)F
    0	-1
COc1ccccc1/C=C/C=c1/sc2nc(=O)c(Cc3ccc(C)cc3)nn2c1=O
    11	14
O=C(Cn1nc(-c2cccs2)oc1=O)Nc1ccc(Cl)cc1
    3	2
c1csc(-c2nc3cnccn3c2NC2CCCCC2)c1
    5	2
CCOC(=O)Cn1c(=NC(=O)c2ccn(C)n2)sc2cc(SC)ccc21
    0	4
CCOC(=O)c1c(NC(=O)c2cccs2)sc(C(=O)Nc2ccc(OC)cc2)c1C
    -5	-9
CCc1nnsc1C(=O)Nc1ccc(OC)c(OC)c1
    1	-1
Cc1cccc(S(=O)(=O)NC(=O)C2(C)CCN2C(=O)Cc2ccccc2)c1 (centres undefined)
    -1	-2
CCN1CCN(C(=O)c2cc(-c3ccccc3)nc3cc(-c4ccccc4)nn23)CC1
    -2	-2
Cc1nc(SCC(=O)NCc2cc3ccccc3o2)n[nH]1
    -4	-5
Nc1ccncc1CCC1CCCCC1
    6	3
CNc1nc(-c2ccccc2)[n+](-c2ccccc2)s1
    37	44
Cn1nccc1C1CCCN(Cc2csc(Br)c2)C1 (centres undefined)
    7	6
CN(C)c1cc(N/N=C\c2ccc(Cl)cc2)nc(N(C)C)n1
    -10	-13
N#Cc1c(SCC(=O)NCC2CCCO2)nc2c(c1-c1ccco1)CCC2=Cc1ccco1 (centres undefined)
    4	1
N#Cc1c(Cl)nsc1NCc1cccnc1Oc1cccc(F)c1
    0	-2
Cc1ccc2[nH]c(=O)cc(C(=O)N3CCN(C)C4(CCN(C)CC4)C3)c2c1
    17	14
CCOCCCNC(=O)Nc1ccccc1OC(F)F
    9	8
OCCN(Cc1ccccc1)Cc1nc(-c2ccccn2)no1
    1	-1
O=C(CC1CCCCN1S(=O)(=O)c1ccccc1)Nc1ccc(F)c(Cl)c1 (centres undefined)
    1	1
Cc1ccnc(CC(C)N(C)C(=O)c2cnn3ccccc23)c1 (centres undefined)
    -1	-7
O=C(CNS(=O)(=O)c1ccc(Cl)c(C(F)(F)F)c1)N1CCC2CCCCC2C1 (centres undefined)
    -2	-3
CC(C)CCCC1CN(C(=O)c2snnc2C(C)C)CCO1 (centres undefined)
    6	1
Cc1ccc(-c2nc(C=Nc3ccc(Cl)cn3)c(O)o2)cc1
    -5	-12
CCOC(=O)c1nn(-c2ccc(F)cc2)c(=O)cc1OCc1ccccc1C
    17	11
O=[N+]([O-])c1ccc(Sc2nnnn2-c2ccccc2)c(Cl)c1
    1	-6
CCc1nc2ccc(C(=O)N3CCN(C)CC3)cn2c1N(CC)Cc1cccc(Br)c1
    -4	19
COc1cccc2c1OCCCN(C(C)C(=O)NC1CCCC1)C2 (centres undefined)
    6	6
Cc1cccc(S(=O)(=O)NC(=O)C2(C)CCN2C(=O)c2sccc2C)c1 (centres undefined)
    0	-2
O=C1NC(=Nc2ccccc2Cl)S/C1=C/c1ccc([N+](=O)[O-])o1
    9	3
CCSC1=NCCN1C(=O)c1ccc(Cl)cc1Cl
    -10	-12
CCCCCN(CC(=O)Nc1cc(C)on1)CC(=O)Nc1cc(C)on1
    -3	-9
CCn1cc2c(n1)-c1c(oc(C(=O)O)c1C)CC2
    3	0
O=C(c1cc(COc2ccc3c(c2)CCCC3)on1)N1CCSCC1
    5&-4	2&-5
CCOC(=O)c1ccc2c(c1)nc(SCc1cc3c(cc1Cl)OCO3)n2Cc1cccc(F)c1
    13	9
Cc1cccc(CN(CC(O)COC(C)C)C2CC2)c1 (centres undefined)
    10	9
O=C(/C=C/c1ccc2c(c1)OCO2)Oc1coc(CSc2ncccn2)cc1=O
    -11	-4
CN(CC(=O)NC1CC1)S(=O)(=O)c1ccccc1C(F)(F)F
    -3	-4
Cc1cccc2nc(C(=O)NCc3cccnc3N3CCN(C)CC3)c(F)n12
    -2	-2
Cc1ccc(F)cc1-n1c(-c2ccn[nH]2)n[nH]c1=O
    1	-2
COc1cc(C(=O)N2CCN(c3ccc(NC(=O)c4ccccc4F)cn3)CC2)cc(Cl)n1
    -4	9
O=C(c1cn(-c2ccccc2)nc1-c1cccs1)N1CCC(NS(=O)(=O)c2ccccc2)CC1
    -5	-7
COc1cccc(F)c1-c1ccc2ncnc(NCCO)c2c1
    8	0

Gathered by group: the compounds so far containing a tert-butyl group.
Below each compound: NPYLR7 ag	NPYLR7 ag max-min
CC(C)(C)C(=O)N1CCCC(OCc2ccc(F)cc2)C1 (centres undefined)
    -5	-3
COc1ccc(OC)c(CNC(=O)[C@H]2CCCC[C@H]2C(=O)NC(C)(C)C)c1
    -2	-7

Of the compounds above, these contain two or more sulfur atoms:
Below each compound: NPYLR7 ag	NPYLR7 ag max-min
CCOC(=O)Cn1c(=NC(=O)c2ccn(C)n2)sc2cc(SC)ccc21
    0	4
CCOC(=O)c1c(NC(=O)c2cccs2)sc(C(=O)Nc2ccc(OC)cc2)c1C
    -5	-9
Cc1cccc(S(=O)(=O)NC(=O)C2(C)CCN2C(=O)c2sccc2C)c1 (centres undefined)
    0	-2
O=C(c1cn(-c2ccccc2)nc1-c1cccs1)N1CCC(NS(=O)(=O)c2ccccc2)CC1
    -5	-7

(more compounds)
Below each compound: NPYLR7 ag	NPYLR7 ag max-min
CN(C)CCNC(=O)CCN(Cc1ccco1)C(=O)c1csc(Nc2ccc(F)cc2)n1
    -10	-12
CCN(CC)C(=NS(=O)(=O)c1ccc(Br)cc1)c1ccccc1
    -8	-12
COCCN(Cc1c(-c2ccccc2)noc1N1CCN(C)CC1)C(=O)c1ccc(OC)cc1
    11	11
C[N+](C)(C)CC(O)CC(=O)O (centres undefined)
    -3&33	-11&29
CCCn1c(SCC(=O)Nc2cc(C)no2)nc2sc(CC)cc2c1=O
    2	1
CCC1(C)NC(=O)N(N=CC=C2N(C)c3ccccc3C2(C)C)C1=O (centres undefined)
    9	7
CN1CCC2(CCCN(C(=O)C3(S(=O)(=O)c4ccccc4)CC3)C2)C1 (centres undefined)
    2	2
COc1ccc(-c2nccn2CCc2nc(C)cc(=O)[nH]2)c(OC)c1
    11	3
CC1OC(O[C@H]2C=C/C=C/C=C/C=C/C=C/C=C/C=C/[C@H](C)[C@@H](O)[C@@H](C)[C@H](C)OC(=O)CC(O)CC(O)CCC(O)C(O)CC(O)C[C@]3(O)C[C@H](O)C(C(=O)O)C(C2)O3)C(O)[C@H](N)C1O (some centres undefined)
    -9&-4	-13&-9
CC1(C)NC(=O)N(CCCC(=O)O)C1=O
    2	22
CC(C)(C)c1ccc(COc2coc(CN3CCN(C(=O)C4(c5ccc(Cl)cc5)CCCC4)CC3)cc2=O)cc1
    17	10
O=C(COC(=O)C=Cc1ccco1)Nc1ccc(Cl)c(S(=O)(=O)N2CCOCC2)c1
    0	14
O=C(c1ccc(Cl)cc1)C1CCN(CC(=O)N2CCN(c3ccccc3)CC2)CC1
    9	8
COCCCN(CC(=O)N(CCc1c[nH]c2ccccc12)Cc1ccc(OC)c(OC)c1)C(=O)c1cccc(C(F)(F)F)c1
    29	36
Cc1nc(/C=C/C(=O)NC(C)c2ncc(-c3ccccc3)[nH]2)cs1 (centres undefined)
    6	3
CC(C)Cc1noc(-c2ccc(-c3ccc4c(c3)OCCO4)nc2)n1
    3	-8
CCCc1cc(C(=O)OCC)nn1C1CCN(C(=O)C2C[C@H]2c2ccccc2)CC1 (some centres undefined)
    2	1
CN(C)Cc1nc(C(=O)N(C)C2Cc3ccccc3C2)cs1
    -1	-1
Cn1c(-c2ccc(C(F)(F)F)cc2)nc2c1c(=O)[nH]c(=O)n2Cc1ccccc1
    -3	-2
CC1(C(=O)NS(=O)(=O)c2cccs2)CCN1C(=O)c1cccc(F)c1 (centres undefined)
    4	2
CC1(C(=O)NS(=O)(=O)Cc2cccc(Cl)c2)CCN1C(=O)C1(c2ccc(Cl)cc2)CC1 (centres undefined)
    1	1
CCOc1ccc(C(=O)Oc2coc(CSc3nc(C)cs3)cc2=O)cc1OCC
    -6	-12
Cc1ccc(Cl)cc1-n1c(SCc2ccc(F)cc2)nnc1C(Cc1ccccc1)NC(=O)Cc1cccs1 (centres undefined)
    -6	0
Cc1c(C(=O)N2CCc3ccccc3C2)cnc2c(-c3cccc(Cl)c3)cnn12
    27	39
C=CCN(Cc1csc(COc2cccc(Cl)c2)n1)C(=O)C1CC1
    33	22
CCC(C(=O)N1CCC2(CC1)C(=O)N(CC(=O)N1CCC(Cc3ccccc3)CC1)CN2c1ccccc1)c1ccccc1 (centres undefined)
    -4	8
Cc1sc2ncnc(-n3ccnc3)c2c1C
    6	13
COc1ccc(-c2c(C)nn3c(NCCc4ccccc4)cc(C)nc23)cc1OC
    3	5
CC(=O)Nc1ccc(NC(=O)c2cccn(OCc3cccc(Cl)c3)c2=O)cc1
    11	10
COc1cccc(-n2c(=O)[nH]c3c(C(N)=O)nc(-c4ccncc4)nc32)c1
    12	2
CCOc1c(C)cnc2c1c(=O)n(Cc1cccnc1)c(=O)n2C
    5	3
CC(NC(=O)CC1c2ccccc2CCc2ccccc21)c1ccncn1 (centres undefined)
    8	5
Cc1cc(C)cc(NNC(=O)C=Cc2cccs2)c1
    7	4
Cn1cc(S(=O)(=O)N2CCCC2)cc1C(=O)O
    1	14
C=C(C)Cn1c(=O)c2c(nc3n(CCCN4CCOCC4)c(C)c(C)n23)n(C)c1=O
    6	3
CC1CC(=O)N(N(C)C)C2(C#N)C(N)=NC(=O)C12C#N (centres undefined)
    -1	-2
CN(C)c1ccc(-c2cc[n+](-c3[nH]c(=O)sc3C=O)cc2)cc1
    38	25
Cn1nc(CN2CCN(c3ncc(F)cn3)CC2)c2c(Cl)cccc21
    10	8
Cc1noc(C)c1CN(C)CC1CN(CC(C)C)CCO1 (centres undefined)
    4	4
CN1CCCC(CC2c3ccccc3Sc3ccccc32)C1 (centres undefined)
    -5	-13
Cc1cccc(CO[C@]2(C(=O)NCC3CC3)CC(OCc3ccc(C#N)cc3)[C@H](O)[C@H](O)C2)c1 (some centres undefined)
    4	4
Cc1ccc(-c2csc3nc(C4CC4)[nH]c(=O)c23)c(C)c1
    -19&-1	-18&-3
Fc1cc(F)c(C2c3cccn3CCCN2Cc2cccs2)cc1F (centres undefined)
    5	14
NS(=O)(=O)c1ccc2nc(NC(=O)c3cnccn3)sc2c1
    1	8
O=C(c1cn(CC2CCCO2)nn1)N1CCN(Cc2ccc3c(c2)OCO3)CC1 (centres undefined)
    16	5
COc1ccc(C2c3ccsc3CCN2C(=O)CN(C(=O)c2ccc([N+](=O)[O-])cc2)C(C)(C)C)cc1 (centres undefined)
    19	25
Cc1c(CN2CCCC(CCC(=O)Nc3ccccc3F)C2)[nH]c2c(C)cccc12 (centres undefined)
    -19	-23
COc1ccc(N=c2oc3cc(OC(C)=O)ccc3cc2C(=O)NC(C)=O)cc1
    -2	-10
O=C1N(Cc2cccc(F)c2)c2ccccc2OC1(F)F
    2	-1
O=C(NCCc1ccc2c(c1)OCO2)C1CCN(C(=O)C=Cc2ccccc2)CC1
    3	10
COc1cccc(CN(CC2CC(c3ccc(F)cc3)=NO2)C(=O)C2CCCC2)c1 (centres undefined)
    19	9
CCCCN(CC(=O)Nc1cc(-c2ccccc2)nn1-c1ccc(C)cc1C)C(=O)Nc1ccc(OCC)cc1
    16	18
N#Cc1c(-c2ccc(Cl)cc2)cc(-c2ccccc2)nc1SCc1ccccc1
    -6	-11
CCc1nc2ccc(C(=O)N3CCN(S(=O)(=O)CC)CC3)cn2c1N(C)CCC(C)C
    -6	-11
Cc1cc(C)c2oc(-c3ccc(NC(=O)c4ccc(Cl)cc4Cl)cc3)nc2c1
    -5	-14
O=C(NCCNC(=O)C1CCN(C(=O)COCc2ccccc2)CC1)c1ccccc1
    24	28
O=C(NC1CCN(c2ccccc2C(=O)NC2CC2)CC1)c1ccccc1F
    0	7
N#C/C(=C\c1ccc(O)c(O)c1)C(=O)c1ccc(O)c(O)c1
    16	-48
COc1ccc(N2CCN(Cn3cnc4ccccc43)CC2)cc1
    0	0
